# Mtb growth: Confirmatory growth inhibition assay against Mycobacterium tuberculosis H37Rv, potency (AID 1949) | most inactive calls were filed without a number and no value below 0 was filed | inhibition, % at 10 µg/mL; hits with a dose series show IC50 in µg/mL | 1.6% of 100,000 active;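 active = confirmed in a dose series; inconclusive = about 50% or more but not retested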;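 also: bacteria grown 7 days with compound before Alamar blue readout; 0% = untreated bacteria and 100% = reference antibiotic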
# Active calls of the source: *; i = inactive; ? = inconclusive.
SMILES,Mtb growth
CCOc1ccc(C(F)(F)F)cc1NC(=O)CSc1ccc(C(F)(F)F)cc1[N+](=O)[O-],3%
COc1ccccc1N1CCN(C(=O)CCCC(=O)N2CCN(c3ccccc3OC)CC2)CC1,4%
CN(c1cccc(NC(=O)CSCc2ccccc2Br)c1)S(C)(=O)=O,4%
CCOC(=O)N1CCN(S(=O)(=O)c2ccc(OC)c(OC)c2)CC1,i
COC(=O)Cc1c(C)c2cc(Cl)c(OCc3ccccc3C)cc2oc1=O,i
COc1ccccc1NC(=O)c1sc2ncn(Cc3ccccc3F)c(=O)c2c1C,7%
O=C(NCc1ccc(-c2nc3ccccc3s2)cc1)c1ccc(Br)o1,i
Cc1ccc(Cl)cc1NC(=O)C1COc2ccccc2O1 (stereo not drawn),i
CC1CCc2c(sc(NC(=O)C(C)Oc3ccc(Cl)cc3Cl)c2C(N)=O)C1 (stereo not drawn),i
CC(C)c1cc(=O)n2[nH]c(Cc3ccccc3)c(-c3cccc4ccccc34)c2n1,0%
ClC1(Cl)CC1CSc1nc2ccccc2[nH]1 (stereo not drawn),i
COC(=O)c1c(NC(=O)CCC(=O)O)sc2c1CCC(C(C)(C)C)C2 (stereo not drawn),2%
COc1ccc(CCNC(=O)CN(c2ccc(C)cc2)S(=O)(=O)c2ccc(F)cc2)cc1,i
CCNC(=O)COc1cc(C)c(Br)c(C)c1,i
COc1ccc(NC(=S)N2CCN(C(c3ccccc3)c3ccccc3)CC2)c(OC)c1,i
Fc1ccc(Nc2nc(-c3ccccn3)cs2)cc1,0.28µg/mL*
COc1ccc(C(=O)NCc2ccc(Cl)c(Cl)c2)cc1,i
Cc1cccc(NC(=O)COc2ccc(Cl)cc2)c1C,45%
CC(C)C(NC(=O)c1ccc(Br)cc1)C(=O)NC1=NCCS1 (stereo not drawn),i
NC(=O)C1CCN(C(=O)CCCN2C(=O)c3ccccc3C2=O)CC1,i
O=C1NC(=O)C(c2ccc(Br)cc2)N1 (stereo not drawn),i
Cc1cc(C)cc(OC(=O)C23CCC(C)(C(=O)C2)C3(C)C)c1 (stereo not drawn),i
CC(=O)Cc1nsc(NC(=O)c2cccs2)n1,i
Cc1cc2oc(C(=O)NCc3ccncc3)c(C)c2cc1C,i

# Part of the list above, with tabs.
mol	Mtb growth
COc1ccc(CCNC(=O)CN(c2ccc(C)cc2)S(=O)(=O)c2ccc(F)cc2)cc1	i
CCNC(=O)COc1cc(C)c(Br)c(C)c1	i
COc1ccc(NC(=S)N2CCN(C(c3ccccc3)c3ccccc3)CC2)c(OC)c1	i
Fc1ccc(Nc2nc(-c3ccccn3)cs2)cc1	0.28µg/mL*
COc1ccc(C(=O)NCc2ccc(Cl)c(Cl)c2)cc1	i

# Continuation.
SMILES,Mtb growth
O=C(Oc1ccc(Nc2ncnc3ccccc23)cc1)c1ccncc1,3%
O=C(Nc1cc(Cl)ccc1Cl)c1ccc(OCC(=O)N2CCCCC2)cc1,i
COc1ccc(C(=O)N2CCN(C(=O)c3cccc4ccccc34)CC2)cc1,i
CCOC(=O)c1c(NC(=O)CSc2nnc(C)s2)sc(C)c1C,i
CCn1c(SCC(=O)Nc2ccc(Br)c(Cl)c2)nnc1-c1ccc(Cl)cc1,i
COc1ccccc1NC(=O)N1CCN(c2ccc(F)cc2)CC1,i
COc1ccc(NC(=O)NC23CC4(C)CC(C)(CC(C)(C4)C2)C3)cc1,i
COC(=O)c1c(NC(=O)CC2Nc3cccc4cccc(c34)NC2=O)sc2c1CCCC2 (stereo not drawn),9%
COc1cc(C)c(S(=O)(=O)n2cnc3cc(C)c(C)cc32)cc1C,0%
COc1cc(OC)cc(C(=O)Nc2ccccc2-c2nc3ccccc3s2)c1,1%
Cc1ccc(NC(=S)c2nc3ccccc3s2)c(C)c1,i
CCn1ncc(CN2CCN(C(=S)Nc3ccc(S(=O)(=O)Nc4ncccn4)cc3)CC2)c1C,i
C#Cc1cccc(NC(=O)c2cc(OC)c(OC)c(OC)c2)c1,i
CCC(Oc1ccccc1)C(=O)Nc1c(C)cc(C)cc1C (stereo not drawn),44%
COc1ccc2oc(=O)c(C(=O)N3CCN(c4cccc(Cl)c4)CC3)cc2c1,i
CCOC(=O)c1cc(CC)sc1N1C(=O)CC(Sc2ncccc2C(=O)O)C1=O (stereo not drawn),i
COc1cc([N+](=O)[O-])ccc1NC(=O)c1cc(Cl)ccc1O,0.12µg/mL*
O=S(CC(O)COCc1ccccc1)c1ccccn1 (stereo not drawn),3%
CC(=O)Nc1ccc(OCC(=O)Nc2ccc(Cl)c(C(F)(F)F)c2)cc1,i
O=C(NC1CCCCC1)N1CCN(c2cccc(C(F)(F)F)c2)CC1,8%
CCCCNS(=O)(=O)c1cccc2c(N(C)C)cccc12,i
CC(C)(C)NS(=O)(=O)c1ccc(OCC(=O)NCc2ccncc2)cc1,i
COc1cccc(C(=O)c2sc(Nc3cccc(C(F)(F)F)c3)c(C#N)c2N)c1,0%
O=C(NC(=S)Nc1ccccc1N1CCCC1)c1ccc([N+](=O)[O-])cc1,4%
CN(C)CCC(O)(c1ccccc1)c1ccccc1,i
Cc1cccc(-n2c(N)cc(=O)[nH]c2=S)c1,4%
CS(=O)(=O)Nc1ccccc1C(=O)N1CCCCCC1,i
CCOC(=O)c1ccc(NC(=O)CCN2C(=O)c3ccccc3C2=O)cc1,i
O=C(O)c1ccccc1NC(=O)N1c2ccccc2Sc2ccccc21,i
O=C(COc1ccc(S(=O)(=O)NCc2ccccc2)cc1Cl)NCc1cccnc1,4%
C=CCOc1ccccc1CNCc1cccs1,2%
CCc1cc(C(=O)N2CCCCC2C)cs1 (stereo not drawn),i
COc1ccccc1C(=O)NC(=S)Nc1ccc(C(=O)O)c(Cl)c1,i
O=c1c2cc(-c3ccccc3)sc2ncn1CCCc1ccccc1,7%
COCCNCCOc1ccc(OCc2ccccc2)cc1,i
Cc1ccc(Cl)c(OC(C)C(=O)NNC(=S)NC2CC2)c1 (stereo not drawn),i

# Four entries from above, with each value named:
smiles: CC(=O)Cc1nsc(NC(=O)c2cccs2)n1
  Mtb growth: i
smiles: Cc1cc2oc(C(=O)NCc3ccncc3)c(C)c2cc1C
  Mtb growth: i
smiles: O=C(Oc1ccc(Nc2ncnc3ccccc23)cc1)c1ccncc1
  Mtb growth: 3%
smiles: O=C(Nc1cc(Cl)ccc1Cl)c1ccc(OCC(=O)N2CCCCC2)cc1
  Mtb growth: i

# Part of the list above, with each value named.
Molecule: O=C(COc1ccc(S(=O)(=O)NCc2ccccc2)cc1Cl)NCc1cccnc1
- Mtb growth: 4%

Molecule: C=CCOc1ccccc1CNCc1cccs1
- Mtb growth: 2%

Molecule: CCc1cc(C(=O)N2CCCCC2C)cs1 (stereo not drawn)
- Mtb growth: i

Molecule: COc1ccccc1C(=O)NC(=S)Nc1ccc(C(=O)O)c(Cl)c1
- Mtb growth: i

# Additional structures.
SMILES,Mtb growth
O=C(CSc1nnnn1-c1ccccc1Cl)Nc1ccc(Br)cc1,i
CCc1ccccc1NC(=O)CCCC(=O)OCC(=O)c1cccc(OC)c1,i
Cc1ccc(C(C)C)c(OCc2nnc(SCC(=O)NCc3ccccc3)o2)c1,i
CC(NC(=O)c1ccco1)c1ccc(I)cc1 (stereo not drawn),0%
COc1cc2c(cc1NC(=O)c1ccc(OC)c(OC)c1)oc1ccccc12,i
CCC(=O)N(CCC(c1ccc(F)cc1)c1ccco1)Cc1ccc(OC)c(OC)c1 (stereo not drawn),4%
O=C(CN1CCN(S(=O)(=O)c2ccccc2)CC1)Nc1cc(Cl)ccc1Cl,i
CCn1cc(C(C)NC(=S)Nc2cccc([N+](=O)[O-])c2)c(C)n1 (stereo not drawn),0%
CC(C)(C)c1nnc(NC(=O)c2ccccc2Oc2ccccc2)s1,5%
COc1ccc(C(=O)Nc2sc3c(c2C#N)CCC(C)C3)cc1[N+](=O)[O-] (stereo not drawn),i
COc1ccc(Cl)cc1C(=O)NNC(=O)c1ccncc1,i
O=S(=O)(NC1CCCCC1)c1ccc(C2CCCCC2)cc1,i
O=C(Nc1cccc(C(=O)Nc2ccc(I)cc2)c1)c1ccccc1,i
CC(C)(C)c1ccccc1OCC(O)CN(CCO)CCO (stereo not drawn),i
CC(C)CC(=O)NC(NC(=S)Nc1cccc(Br)c1)C(Cl)(Cl)Cl (stereo not drawn),2%
CCN(CC)C(=O)CN1C(=O)C2(OCC(C)(c3ccccc3)CO2)c2ccccc21 (stereo not drawn),i
COc1ccccc1NC(=O)CCC(=O)OCc1ccc(Cl)cc1,i
COC(=O)Cc1c(C)c2ccc(OCC(=O)Nc3cc(C)cc(C)c3)cc2oc1=O,0.2µg/mL*
CCC(C(=O)Nc1ccc(OC)c(OC)c1)c1ccccc1 (stereo not drawn),i
COc1ccc(OC)c(S(=O)(=O)Nc2ccccc2C)c1,i
CC(=O)c1cccc(Oc2ccc(C#N)cc2[N+](=O)[O-])c1,i
Cc1cccc(NC(=O)CN(C)S(=O)(=O)c2ccccc2)n1,i
CCOc1ccc(N(CC(=O)NCCSc2ccccc2)S(=O)(=O)c2ccc(C)cc2)cc1,i
S=C(c1cn(Cc2ccc(Cl)c(Cl)c2)c2ccccc12)N1CCCC1,i
COC(=O)c1ccccc1NC(=O)CN(Cc1ccc(Cl)cc1)S(=O)(=O)c1ccccc1,0%
Cc1cccc(-c2noc(COc3ccc(Cl)cc3Cl)n2)c1,i
COc1ccccc1C(=O)Nc1sc2c(c1C(=O)NCc1ccco1)CCC2,30%
O=C(Nc1nnc(SCc2ccccc2F)s1)c1ccccc1F,0%
O=[N+]([O-])c1cccc(Cn2cc(Br)cn2)c1,i
Cc1cc(Br)ccc1OCC(=O)NCCCN1CCOCC1,i
O=C(Cc1ccccc1)N1CCN(C2CCCCC2)CC1,i
CCOC(=O)c1c(-c2cccs2)csc1NC(=O)c1ccc(Cl)cc1,i
COC(=O)c1ccccc1NC(=O)NC(C)c1cc(OC)ccc1OC (stereo not drawn),i
COc1ccc(CCNC(=O)C(C)Oc2cccc(NC(C)=O)c2)cc1OC (stereo not drawn),i
CCOc1ccc(N(CC(=O)Nc2ccccc2OC)S(=O)(=O)c2ccc(SC)cc2)cc1,i
COc1cc([N+](=O)[O-])ccc1NC(=O)N(CC(C)C)CC(C)C,26%
Cc1cc(C)c(NC(=O)C2COc3ccccc3O2)c(C)c1 (stereo not drawn),22%
CCN=C(NS(=O)(=O)c1ccccc1)c1ccccc1,i
Cc1cccc(NC(=S)NCCc2ccccc2)c1C,i
C=CCNCCCCOc1ccc(C)cc1Br,i
CS(=O)(=O)Nc1ccc(C(=O)Nc2cccnc2)cc1,i
Cc1nc2ccc(NC(=O)N3CCC(c4ccccc4)C3)cc2s1 (stereo not drawn),0%
O=C(NNC(=S)NCc1ccc(F)cc1)c1ccco1,i
COc1ccc2nc(NC(=O)CN3CCCC3)sc2c1,4%
COc1ccccc1N1CCN(C(=O)CN(Cc2ccccc2)S(C)(=O)=O)CC1,i
COc1ccc(Br)cc1C(=O)Nc1c(C)n(C)n(-c2ccccc2)c1=O,i
COc1ccc(N(CC(=O)Nc2ccc(NC(C)=O)cc2)S(=O)(=O)c2ccc(C)cc2)cc1OC,i
O=C(O)c1ccc2nccnc2c1,5%
S=C(NCCc1c[nH]c2ccccc12)NCc1ccco1,2%
CCOC(=O)c1cc(-c2ccccc2)sc1NC(=S)N1CCN(S(C)(=O)=O)CC1,i
CN1CCN(c2oc(-c3ccccc3Cl)nc2S(=O)(=O)c2ccccc2)CC1,i
COc1cc(/C=C2/C(=N)N3N=C(C(F)(F)F)SC3=NC2=O)ccc1OCc1ccccc1F,i
COc1ccc(C(=O)Nc2ccc(S(=O)(=O)N(C)C)cc2)cc1,i
O=C(Oc1ccc(F)cc1)c1sc2ccccc2c1Cl,3.1µg/mL*
CNS(=O)(=O)c1ccc(SC)cc1,1%
Cc1ccc(C(=O)NC2(C(F)(F)F)N=C(c3ccccc3F)NC2=O)cc1 (stereo not drawn),i
O=C(CN1C(=O)C2C3C=CC(C3)C2C1=O)Nc1ccc([N+](=O)[O-])cc1O (stereo not drawn),i
COc1cc(CO)cc(Cl)c1OCc1ccccc1F,4%
CCOC(=O)N1CCN(C(=O)c2cc(I)ccc2NC(=O)c2ccco2)CC1,i
CCc1ccccc1NC(=O)CSCc1c(F)cccc1Cl,i

# Later entries:
SMILES,Mtb growth
C=CCn1c(Cc2cccs2)nnc1SCC(=O)Nc1ccccc1OCC,i
CC(C)c1ccc(NC(=O)c2ccccc2NS(C)(=O)=O)cc1,i
CCCCCCNC(=O)C(=O)NCCOC,i
CCOC(=O)C1=C(C)NC2=C(C(=O)CC(c3ccccc3)C2)C1c1cccnc1 (stereo not drawn),1%
O=C(c1cc2c(=O)n3ccccc3nc2s1)N1CC=C(c2ccccc2)CC1,i
COc1ccc(F)cc1S(=O)(=O)Nc1ccncc1,i
Cc1cc(O)cc(C)c1NS(=O)(=O)c1ccc([N+](=O)[O-])cc1,0%
Cc1cccc(NC(=O)c2c(N)sc3c2CCC(C)C3)c1 (stereo not drawn),i
COCCSc1nc2c(c(=O)[nH]c(=O)n2C)n1CCC(C)C,4%
Cc1c(Cl)cccc1NC(=O)CSCc1cc(=O)[nH][nH]1,i
C=CCN1C(=O)C(O)(c2c[nH]c3ccccc23)c2cc(Cl)ccc21 (stereo not drawn),i
Cc1ccc(F)cc1NC(=O)c1cc2cc(Cl)ccc2oc1=O,?
Cc1cc(C(=O)NNC(=O)Nc2cccc(C(F)(F)F)c2)no1,0%
CNC(=O)C1=C(C)NC(=S)NC1c1ccccc1F (stereo not drawn),i
C=CCn1c(SCC#N)nc2sc(CC)cc2c1=O,i

# Assay outcomes deposited in PubChem by Southern Research Institute.

# A portion of the library; the hit share may differ from the screen's.
